Bioassay records deposited in PubChem by National Center for Advancing Translational Sciences (NCATS).
TRPV1 PAM = HTS Assay for Compounds that Act as Potentiators of the Vanilloid Receptor 1 | Transient receptor potential cation channel subfamily V member 1 (Homo sapiens), Q8NER1 | TRPV1-expressing cells, Fluo-8 calcium influx, capsaicin EC20 potentiation; host cell line not named in the record; control for the full effect not named in the record | potentiation, % at 8.33 µM | 320,000 tested, 0.02% active; active means potentiation above 80%; inconclusive means 30% to 80%; inactive means below 30%; note: 0% is about no effect
Target sequence (Q8NER1 whole entry, looked up): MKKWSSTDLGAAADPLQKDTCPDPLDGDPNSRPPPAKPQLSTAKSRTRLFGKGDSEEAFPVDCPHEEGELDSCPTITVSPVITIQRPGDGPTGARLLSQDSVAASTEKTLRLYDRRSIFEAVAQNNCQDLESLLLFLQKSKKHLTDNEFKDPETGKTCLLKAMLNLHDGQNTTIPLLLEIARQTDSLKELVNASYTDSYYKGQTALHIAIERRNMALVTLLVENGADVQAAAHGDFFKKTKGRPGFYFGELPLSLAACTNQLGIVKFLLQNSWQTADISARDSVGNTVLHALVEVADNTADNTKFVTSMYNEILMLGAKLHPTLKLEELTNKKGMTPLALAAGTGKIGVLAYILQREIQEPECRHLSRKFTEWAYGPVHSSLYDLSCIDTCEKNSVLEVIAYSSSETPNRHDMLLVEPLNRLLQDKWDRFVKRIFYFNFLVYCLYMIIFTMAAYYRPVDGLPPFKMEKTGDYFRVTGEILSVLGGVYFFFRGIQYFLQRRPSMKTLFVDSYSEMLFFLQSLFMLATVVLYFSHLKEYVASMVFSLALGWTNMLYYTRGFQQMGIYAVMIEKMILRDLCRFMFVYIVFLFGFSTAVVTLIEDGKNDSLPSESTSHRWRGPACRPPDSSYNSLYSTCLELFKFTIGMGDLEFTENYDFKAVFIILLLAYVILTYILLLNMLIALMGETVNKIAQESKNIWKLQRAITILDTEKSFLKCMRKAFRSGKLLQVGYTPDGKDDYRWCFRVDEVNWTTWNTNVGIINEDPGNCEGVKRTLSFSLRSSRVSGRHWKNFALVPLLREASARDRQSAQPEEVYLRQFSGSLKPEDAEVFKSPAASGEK
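TRPV1-expressing cells were cultured overnight at 35.5C and loaded with Fluo-8 calcium dye for 40 to 90 min at room temperature. After a 10 s baseline, compound was added and calcium influx was read kinetically for 3 min (ex 480/em 520 nm).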
An asterisk follows results filed as active; i = inactive; ? = inconclusive. An excerpt (hit frequency here may not be typical).

SMILES	TRPV1 PAM
COC(=O)c1c(NC(=O)CN2CCN(S(=O)(=O)c3ccccc3)CC2)sc2c1CCC(C)C2 (stereo not given)	?
Cc1cc(Oc2ccccc2)nc2ccc(O)cc12	14.3
Cc1cccc2cc(CN(CC3CCCO3)C(=O)c3ccco3)c3nnnn3c12 (stereo not given)	-0.7
FC(F)(F)c1cc(C(F)(F)F)c2ccc(N/N=C/c3cccc(Cl)c3)nc2n1	11.2
COC(=O)c1cc(-c2ccccc2)sc1NC(=O)c1cc(C)on1	3.1
CCCC(=O)NCc1ccncc1	5.1
CCn1c2ccccc2c2cc(CN3CCN(S(=O)(=O)CC)CC3)ccc21	6.6
Cc1ccc(CN2C(=O)/C(=C3\SC(N4CCOCC4)=NC3=O)c3cc(Br)ccc32)cc1	0.3
O=C1CSC(c2cn(-c3ccccc3)nc2-c2cccs2)N1Cc1ccccc1 (stereo not given)	5.0
Cc1nnc2sc(SCc3ccccc3)nn2c1=O	7.9
C=CCn1cnc2c(c1=O)c1nc3ccccc3nc1n2-c1ccc(C)cc1	-11.1
Cc1ccnc(N2C(=O)c3ccc([N+](=O)[O-])cc3C2=O)c1	12.0
Oc1ccc(O)c(/C(=N/Nc2ccccc2)c2ccccc2)c1	17.0
O=C(c1cccs1)[C@@H]1[C@@H]2C(=O)N(Cc3ccc4c(c3)OCO4)C(=O)[C@@H]2C2c3ccccc3C=CN21 (stereo not given in full)	10.6
NC(=O)C(=CNc1nc(-c2ccc(Cl)c(Cl)c2)cs1)C(N)=O	4.6
COc1cccc(CN2CCNC(=O)C2CC(=O)N(C)CCc2ccccn2)c1OC (stereo not given)	3.2
CCOC(=O)c1cn(-c2ccc(F)c(F)c2)c2c(F)c(F)c(F)c(F)c2c1=O	5.9
COC(=O)c1ccccc1S(=O)(=O)N(Cc1cc2cc3c(cc2[nH]c1=O)OCO3)C1CCCCC1	29.9
O=Nc1c2nc3ccccc3n(O)c-2c2ccccc12	-5.7
COc1ccc(Nc2ccc3nnc(-c4ccc(Br)cc4)n3n2)cc1	-5.3

Molecules listed so far that have four or more nitrogen atoms, in the order listed:
SMILES	TRPV1 PAM
Cc1cccc2cc(CN(CC3CCCO3)C(=O)c3ccco3)c3nnnn3c12 (stereo not given)	-0.7
FC(F)(F)c1cc(C(F)(F)F)c2ccc(N/N=C/c3cccc(Cl)c3)nc2n1	11.2
Cc1nnc2sc(SCc3ccccc3)nn2c1=O	7.9
C=CCn1cnc2c(c1=O)c1nc3ccccc3nc1n2-c1ccc(C)cc1	-11.1
NC(=O)C(=CNc1nc(-c2ccc(Cl)c(Cl)c2)cs1)C(N)=O	4.6
COc1cccc(CN2CCNC(=O)C2CC(=O)N(C)CCc2ccccn2)c1OC (stereo not given)	3.2
COc1ccc(Nc2ccc3nnc(-c4ccc(Br)cc4)n3n2)cc1	-5.3

Other structures
SMILES	TRPV1 PAM
Cc1ccc2c(c1)sc1ncc(NC(=O)c3ccc(F)cc3)c(=O)n12	-39.6
COc1cc2c(cc1OC)C1O[C@](CCCCN3C(=O)c4ccccc4C3=O)(C2)OC2=C1C(=O)c1ccccc1C2=O	i
Cc1sc2nc(CN3CCC(C)CC3)nc(Cl)c2c1C	-22.4
COc1ccc(S(=O)(=O)NCc2ccc(C(=O)NCc3cccnc3)cc2)cc1	6.6
Cn1c(=O)c2c(SCC(=O)NCC3CCCO3)nc(-c3cccs3)nc2n(C)c1=O (stereo not given)	-25.4
Cc1nc2ccccc2c2c1C(=O)NC2=O	3.0
CCN(CC)CCn1c(=S)[nH]c2cc(C(=O)N3CC=C(c4ccccc4)CC3)ccc2c1=O	3.7
Cc1cc2nc(-c3ccc(SCC(=O)NC(C)C)nc3)[nH]c2cc1C	10.1
OC(CNC1CCCCC1)CN1CCN(CC(O)CNC2CCCCC2)CC1 (stereo not given)	-2.8
CC1CCc2c(sc3ncnc(SCC(=O)N4CCN(C(=O)c5ccco5)CC4)c23)C1 (stereo not given)	-2.4
O=C(CSc1nnc(SCc2cccc3ccccc23)s1)N=Nc1c(O)[nH]c2ccccc12	2.2
CC1NC(=O)c2ccccc2-n2c1nc1cc(F)ccc1c2=O (stereo not given)	-2.8
Cc1ccc(-n2nc(C)c(C3C(C#N)=C(N)OC4=C3C(=O)CC(C)(C)C4)c2Cl)cc1 (stereo not given)	-7.5
O=S(=O)(NC1CCN(S(=O)(=O)c2ccc3c(c2)OCCO3)C1)c1c(F)cccc1F (stereo not given)	-1.3
COc1ccc2c(c1)O[C@@H](c1cccc(C(F)(F)F)c1)[C@H](O)C2=O	10.3
COc1cc2c(cc1OC)C1O[C@](CCCCN3C(=O)c4ccccc4C3=O)(C2)Oc2cc(C)n(Cc3ccccc3)c(=O)c21	i
Cc1ccccc1NC(=O)c1nc2nccc(C)n2n1	5.7
O=C(Nc1ccc(Cl)cc1)/C(=C/c1ccc([N+](=O)[O-])cc1)c1nc2ccccc2s1	29.2
O=C(Nc1ccc(F)cc1F)c1cc2ncc(Br)cn2n1	-19.9
CCn1c(-c2ccc(F)cc2)cnc1SCC(=O)N1CCCCC1C (stereo not given)	-13.7
Cc1ccc2c(c1)NC(=O)c1cccc([N+](=O)[O-])c1CO2	0.1
COc1ccc(/C=C2\SC(=Nc3ccccc3)NC2=O)cc1	14.2
CCn1ncc(CNC(=O)c2cccc([N+](=O)[O-])c2)c1C	9.3
CN1C(=O)COc2ccc(C(=O)c3oc4ccccc4c3-c3cnc4c(c3)COc3ccccc3-4)cc21	2.9
Cc1ccc(NCc2nnc(SCC(N)=O)n2CCc2ccccc2)cc1	-5.8
Cc1ccc2sc(-c3ccc(NC(=O)CCN4C(=O)c5ccccc5C4=O)cc3)nc2c1	20.6
CCC(=O)Nc1nc2n(n1)C(c1ccc(OC)cc1)C=C(c1ccccc1)N2 (stereo not given)	6.0
O=C(COC(=O)c1sc2cc(Cl)ccc2c1Cl)Nc1ncc(Cl)cc1Cl	-3.3
COc1ccc(N2C(=O)CC(S/C(N)=N/N=C/c3ccnc4ccccc34)C2=O)cc1 (stereo not given)	12.8
CCOc1ccccc1Nc1nc(-c2sc(NC(=O)c3ccccc3)nc2C)cs1	-19.3
CSCCC(NC(=O)c1ccccc1)c1nc(-c2ccccc2)no1 (stereo not given)	-11.9
CCN1CCN(CCOCCOc2ccccc2-c2ccccc2)CC1	-2.2
S=C(NCCc1cccc(Cl)c1)NCc1ccccc1	-1.9
Cc1ccc2nc(C)c(CN3CCN(c4ccc([N+](=O)[O-])cc4Cl)CC3)n2c1	-3.3
Nc1nc(-c2cccnc2)nn1C(=O)c1ccco1	3.6
C[C@H]1O[C@H](O[C@H]2[C@H](O)[C@@H](O)[C@@H](O[C@H]3[C@H](O)[C@@H](O)C(O)O[C@@H]3CO)O[C@@H]2CO)[C@H](O)[C@@H](O)[C@@H]1N[C@H]1C=C(CO)[C@@H](O)[C@H](O)[C@H]1O (stereo not given in full)	-2.7
O=C(O)c1ccc(Nc2nc(-c3cccnc3)nc3ccccc23)cc1	2.6
Cc1ccc(S(=O)(=O)NC(=O)N2CCC(C)CC2)cc1	-24.4
Cc1cc(/C=N/Nc2nc(N)ncc2[N+](=O)[O-])c(C)n1-c1cccc(C(F)(F)F)c1	2.3
Oc1ccc(N=Nc2ccc3c(c2)OCO3)c2ccccc12	6.0
O=C(CCl)N1c2ccccc2CCc2ccccc21	5.2
C#CCOCCOCCOCCNc1nc(N2CCN(C(=O)CCCCCCCCCCNC(=O)[C@H](CO)n3cc(CCCSC)nn3)CC2)nc(N2CCN(C(=O)CCCCCCCCCCNC(=O)[C@@H]([C@H](C)O)n3cc(C)nn3)CC2)n1	-36.3
CCOc1cc(NC(=O)C2CC2)c(OCC)cc1NC(=O)c1cccnc1	-7.0
O=C1c2ccccc2NC(c2ccc(-c3ccc(F)cc3)o2)N1O (stereo not given)	2.3
Cc1ccc(/C=N/NC(=O)c2c(-c3ccccc3)noc2C)c(O)c1	2.0
O=C(CN1C(=O)CC(c2ccccc2)S(=O)(=O)c2ccccc21)N1CCOCC1 (stereo not given)	-4.6
Cc1ccnc(N=Cc2c(O)ccc3oc4c(c23)CCCC4)c1	1.1
CC1(C)[C@@H](O)CC[C@]2(C)C3C(O)C=C4[C@H]5C[C@@](C)(C(=O)O)CC[C@]5(C)CC[C@]4(C)[C@]3(C)CC[C@@H]12 (stereo not given in full)	-37.9
Cc1noc(C)c1S(=O)(=O)NCCCN1CCN(Cc2ccccc2)CC1	11.4
COc1ccc2o/c(=N/NC(=S)Nc3ccccc3)c(C(N)=O)cc2c1	-9.4
CCc1nc(N2CCN(c3nc(C)cc(C)n3)CC2)c2oc3ccccc3c2n1	10.2
COc1ccc(NC(=O)c2ccc3c(SCC(=O)O)c4c(nc3c2)CCCC4)cc1Cl	5.4
O=C1Cc2cc(CCN3CCN(c4nsc5ccccc45)CC3)c(Cl)cc2N1	-2.8
CCOc1ccc(CCN2C(=O)C(=O)N([C@H](CCCN(C)Cc3ccccc3)CNCc3ccccc3)C[C@@H]2C(C)C)cc1	6.0
CCSc1nnc(NC(=O)/C=C/c2ccc3c(c2)OCO3)s1	3.9
CC1(C)CC(NC(=S)NCc2ccc3c(c2)OCO3)CC(C)(C)N1	5.1
Cc1noc(C)c1S(=O)(=O)Nc1ccc(C(=O)N2CCC(C)CC2)cc1	-2.2
CCNC(=S)Nc1cccc([N+](=O)[O-])c1	-18.5
O=C(CN1C(=O)NC2NC(=O)NC21)N/N=C/c1ccccc1F (stereo not given)	-2.3
Cc1cccc(CNc2ncnc3ccc(-c4ccccc4Cl)cc23)c1	2.0
Continued.
SMILES	TRPV1 PAM
COc1ccc2c(COC(=O)CCS(=O)(=O)c3ccccc3)cc(=O)oc2c1	4.3
Cn1nnc2c(C(N)=O)ncn2c1=O	3.5
CCn1cnc2c(NCCc3cccnc3)nc(C#N)nc21	-4.0
COCCNC(=O)c1cc(Sc2nnc(C)s2)nc2ccccc12	22.3
Cc1nc(N2CCCCC2)sc1C(=O)c1ccc(Cl)c([N+](=O)[O-])c1	-20.9
CC1CCN(C(=O)C2CCN(CCCc3ccccc3)CC2)CC1	-11.0
O=C(CCCCCNC(=O)c1ccccc1)N=Nc1c(O)[nH]c2c(Br)cc(Br)cc12	?
O=C(NC1CCCCC1)C(=S)NC1CCCCC1	-5.6
Cc1ccc(S(=O)(=O)c2cc3c(=O)n4cccc(C)c4nc3n(Cc3ccco3)c2=N)cc1C	23.1
Cn1cccc1/C=N/NC(=O)c1sc2cc(Cl)ccc2c1Cl	2.9
CCN(CC)CCN1C(=O)C(=O)/C(=C(/O)c2ccc(OCC(C)C)cc2)C1c1ccncc1 (stereo not given)	13.9
COc1cc2c(cc1OC)C1O[C@](CCCCN3C(=O)c4ccccc4C3=O)(C2)Oc2c1c(=O)oc1ccc(F)cc21	i
COc1ccc(C(OCC2CO2)c2ccc(OC)cc2)cc1 (stereo not given)	-6.6
COc1ccc(Nc2cc(C(=O)NCc3ccccn3)c3ccccc3n2)c(OC)c1	8.0
Cc1nc2ccccc2c2c1C(=O)N(CCC1=CCCCC1)C2=O	-8.4
CCOC(=O)c1[nH]c2ccc(OC)cc2c1NC(=O)C(C)N1CCC2(CC1)OCCO2 (stereo not given)	29.3
CCC(=O)Nc1ccc(C(=O)CN2CCC(C)CC2)cc1	10.4
COc1cccc(/C(O)=C2/C(=O)C(=O)N(CCCN(C)C)C2c2cccc(Cl)c2)c1 (stereo not given)	2.0
Cn1nc(OC(=O)Nc2ccccc2)cc1C(F)(F)F	11.3
c1cncc(-c2nc(Oc3ccc(-c4nnco4)cc3)c3c4c(sc3n2)CCCC4)c1	4.4
COc1ccc(C2=NNC(c3cc(Cl)cc4c3OCOC4)C2)c(O)c1 (stereo not given)	-2.2
O=[N+]([O-])c1ccc(-c2ccc(/C=N/c3c(-c4ccco4)nc4ccccn34)o2)c(Cl)c1	-0.8
COc1cc(C)c(CNc2ccc(OC)c(OC)c2)cc1C	4.4
CCOC(=O)c1cc(-c2ccc(Cl)cc2)nc2onc(C)c12	8.6
COc1ccc(Oc2coc3cc(OCC(=O)N4CCCCC4)ccc3c2=O)cc1	-8.6
Cc1ccc2[nH]c3c(c2c1)CN(C(=O)CN1CCSCC1)CC3	-19.4
Cc1cc(C)c(NS(=O)(=O)c2ccc(NC(=O)/C=C/C(=O)O)cc2)c(C)c1	?
Cn1c(=O)c(C(=O)Nc2cnccn2)c(O)c2ccccc21	28.3
CCCCn1nc(-c2ccccc2)c2nc3ccccc3nc21	-13.4
Cc1cccc(N2CCN(S(=O)(=O)c3ccc4[nH]c(=O)c(=O)[nH]c4c3)CC2C)c1 (stereo not given)	?
CC(C)c1ccc(S(=O)(=O)N2CCN(CC(=O)c3ccc(O)c(O)c3)CC2)cc1	?
O=C(CSc1nc2c(cnn2-c2ccc(F)cc2)c(=O)[nH]1)N1N=C(c2cccs2)CC1c1ccc(F)cc1 (stereo not given)	-2.9
Cc1ccc2[nH]c3c(c2c1)CN(C(=O)CN1CCN(C(=O)c2ccco2)CC1)CC3	-0.6
O=C(c1ccc(F)cc1)C1CCN(CCn2c(=S)[nH]c3ccccc3c2=O)CC1	11.6
O=C(Cn1nc(-c2ccc3c(c2)OCCO3)ccc1=O)Nc1cccc(NC(=O)c2ccccn2)c1	5.6
Cc1ccc(C(=O)NC(=S)N(C)C2CCCCC2)cc1Br	-7.4
COc1ccc(-c2csc(NC(=O)COC(=O)Cc3ccc(Cl)cc3Cl)n2)cc1	-14.8
CN(C)CCN(C)Cc1ccc2c(c1)Cc1ccccc1-2	-13.8
CCN1C(=O)[C@H]2[C@@H](c3ccc(-c4ccc(F)cc4)c(OC)c3)N[C@@](CC(C)C)(C(=O)OC)[C@H]2C1=O	27.5

4 structures already listed, arranged by SMILES length, high to low.
SMILES	TRPV1 PAM
COc1ccc2c(COC(=O)CCS(=O)(=O)c3ccccc3)cc(=O)oc2c1	4.3
Cc1ccc2c(c1)sc1ncc(NC(=O)c3ccc(F)cc3)c(=O)n12	-39.6
Cc1ccnc(N2C(=O)c3ccc([N+](=O)[O-])cc3C2=O)c1	12.0
O=C(O)c1ccc(Nc2nc(-c3cccnc3)nc3ccccc23)cc1	2.6
